Vaccinia mCherry: vaccinia inhibition (mCherry reporter). Vaccinia virus mCherry reporter infection, fluorescence; about a quarter of the inactives have no number. hit rate 0.63% among 310,000. Potency, µM (titrated, usually from 36.5 µM), without a hit: at the top dose activity change, negative = inhibition, actives largely listed as inhibitors; active = well fitted inhibition curve with a large enough effect; inconclusive = small, poorly fitted or top-dose-only effect; inactive = no such curve, though single readings can be large or run the other way; tested in A549 cells; note: nearly all actives have a fitted effect of over 35% in size; inactives centre near -10
Vaccinia Venus: inhibitors of vaccinia virus (Venus reporter); AID 720580; Vaccinia virus Venus reporter expression, fluorescence; hit rate 0.46% among 330,000; Potency, µM (highest dose often 36.5 µM), for inactives: at the top dose activity change, negative = inhibition, most hits filed as inhibitors; active means well fitted inhibition curve with a large enough effect; inconclusive means small, poorly fitted or top-dose-only effect; inactive means no such curve, though single readings can be large or run the other way; tested in A549 cells; note: nearly all actives have a fitted effect of over 30% in size; inactives centre near -10
Numbers without * were called inactive; i = inactive; ? = inconclusive; / = not tested or not shown; & = joins results of further samples; [ ] = dose if it differs, or a comment. % is set by controls: 0 for no effect and ±100 for the full control effect; potency is the fitted concentration of half-maximal effect. Rows were taken by chance. About 0.87% of those tested had a hit in this group.

SMILES | Vaccinia mCherry | Vaccinia Venus
CC(C)(C)NC(=O)C1(C)CCC(=O)N1C1CC1 (configuration not stated) | 10% | 0%
COCCC(=O)Nc1ccc2c(c1)CN(C(=O)CSC)CC2 | i | -14%
COc1cc([C@@H]2c3cc4c(cc3C[C@H]3COC(=O)[C@@H]32)OCO4)cc(OC)c1O | 10µM* | ?
CCn1c(SCC(=O)Nc2nc(C)c(C)s2)nc2cccnc21 | -12% | -17%
CCOc1cc(/C=N/NC(=O)c2nn(C)cc2Br)ccc1OCc1ccccc1 | -12% | -2%
NC1=CC(=O)C(=O)c2ccccc21 | 14µM* | ?
CCOc1ccccc1NC1=C(Cl)C(=O)N(Cc2ccccc2)C1=O | ? | -22%
CCCn1cc(S(=O)(=O)c2ccc(CC)cc2)c(=O)c2cc(F)c(N3CCN(C)CC3)cc21 | -5% | -2%
COc1cc(/C=C/C(=O)OCC(=O)c2ccc(OC(F)F)cc2)ccc1O | -19% | -7%
CCOC(=O)c1ccc(N2C(=O)c3n[nH]c(-c4cccs4)c3C2c2cccc(O)c2)cc1 (configuration not stated) | -19% | -14%
COc1ccccc1C(=O)NCCC(=O)NCCC12CC3CC(CC(C3)C1)C2 | ? | -23%
COC(=O)C1CCCCN1C(=O)c1cccc(OC2CCN(C(=O)C3CC3)CC2)c1 (configuration not stated) | -2% | -20%
Cc1ccc(S(=O)(=O)NC(=O)Nc2nccs2)cc1 | i | -2%
CCOC(=O)C1=C(C)Nc2nc(C)nn2C1c1ccc(C)cc1 (configuration not stated) | -8% | -5%
O=C(C1CCCCC1)N1CC(=O)N2CCc3ccccc3C2C1 (configuration not stated) | -5% | -2%
CCc1nc(Nc2ccc3c(c2)OCO3)c2oc3ccccc3c2n1 | ? | -26%
CN(CC(=O)NCc1ccc2c(c1)OCO2)S(=O)(=O)c1ccc(F)cc1 | -11% | -16%
O=C(NCC1CC1)C1(C(F)(F)F)C/C(=C\Cc2ccccc2)CCCO1 (configuration not stated) | i | -14%
O=C(c1cccc(S(=O)(=O)N2CCOCC2)c1)N1CCN(Cc2ccc3c(c2)OCO3)CC1 | i | -3%
N#CCn1cnc2sc(-c3ccccc3)cc2c1=O | 4% | -4%
Cc1oc2cc3oc(=O)c(CCC(=O)NCCN4CCOCC4)c(C)c3cc2c1C | -18% | -8%
Nc1nc(SCC(=O)NCc2ccccc2Cl)[nH]c(=O)c1NC(=O)c1ccccc1F | -7% | -11%
CN(C)Cc1c(C(=O)N/N=C/c2cccnc2)nnn1-c1nonc1N | -12% | -3%
CCCCNC(=O)C(CC)n1c(SCc2cccc(F)c2)nc2ccncc21 (configuration not stated) | 3% | -13%
CC(OC(=O)c1cc2sccc2n1C)C(=O)NCc1ccco1 (configuration not stated) | -19% | -13%
CNC(=O)c1ccc(-c2cc3onc(-c4ccccc4)c3c(=O)n2C)cc1 | -11% | ?
Cn1cnnc1Sc1cc(N2CCNCC2)ccc1[N+](=O)[O-] | -11% | -1%
OC[C@H]1O[C@@H](n2cnc3c(Nc4ccccc4)ncnc32)[C@H](O)[C@@H]1O | -18% | -12%
Cc1ccc(C2C(=O)NC(=O)NC2=O)cc1 | i | -4%
O=c1onc(-c2ccc(Cl)cc2Cl)n1-c1cccnc1 | -14% | -6%

Overlap with the part before: two entries, followed by the next part.
SMILES | Vaccinia mCherry | Vaccinia Venus
Cc1ccc(C2C(=O)NC(=O)NC2=O)cc1 | i | -4%
O=c1onc(-c2ccc(Cl)cc2Cl)n1-c1cccnc1 | -14% | -6%
Cc1c2ccccc2cc[n+]1CCCS(=O)(=O)[O-] | -3% | -15%
CCn1c(SCC(=O)NCCCN2CCCC2=O)nnc1-c1cccc(C)c1 | -8% | -8%
COCCn1c(SCC(=O)Nc2ccc(Br)cc2)nc2c([nH]c3ccccc32)c1=O | -5% | -1%
O=C1CN(C(=O)COc2ccc(Cl)cc2)C(c2ccc(F)cc2)c2cc(Cl)ccc2N1 (configuration not stated) | -12% | -11%
COc1ccc(OC)c(NC(=O)CC(=O)Nc2ccc3nc4n(c(=O)c3c2)CCCCC4)c1 | -5% | 5%
COc1cc(CNn2cn[nH]c2=S)cc(Cl)c1OCc1ccc(F)cc1 | ? | -9%
COc1ccccc1C(=O)NC(=S)Nc1cccc2cc(O)ccc12 | ? | ?
COc1ccc2cc(C3CC=C(COC(C)=O)CN3S(=O)(=O)c3ccccc3[N+](=O)[O-])n(C(=O)OC(C)(C)C)c2c1 (configuration not stated) | ? | -13%
CC(=O)Nc1nonc1-c1nc2ccccc2n1CC1CC1 | -10% | -6%
C[C@]12CCC3C(CC=C4C[C@@H](O)CC[C@@]43C)C1CCC2[C@]1(C)CCC(=O)O1 (some centres not stated) | -4% | -7%
COc1ccc(CNC(=O)CCCC(=O)Nc2cccc(Br)c2)cc1 | -13% | -2%
O=C(Nc1cccc(S(=O)(=O)N2CCCCC2)c1)C1CC(=O)N(Cc2ccco2)C1 (configuration not stated) | -2% | -1%
CCc1ccc(-c2nc(CN3CCC(C(=O)NCCc4ccc(Cl)cc4)CC3)c(C)o2)cc1 | -23% | -22%
C[C@H]1CN=C2N(CCNC(=O)CCC3CCCCC3)[C@H](Cc3ccc(O)cc3)CN21 | -15% | -8%
CCOc1ccccc1N1CCN(c2ncnc3scc(-c4ccc(OC)cc4)c23)CC1 | ? | -12%
C=CCC[C@H](Cc1ccc(F)cc1)C(=O)OC[C@@H](NC(=O)[C@H](CC=C)CC(=O)NCCO)c1ccccc1 | i | -23%
CC(=O)N1N=C(c2ccco2)CC1c1ccc(Br)cc1 (configuration not stated) | -16% | -10%
O=C(O)/C=C/C(=O)N1CCN(C(=O)/C=C/C(=O)O)CC1 | -16% | -4%
Nc1ccccc1C(=O)N1O[C@@H]2C=C[C@H]1C2 | i | -10%
COc1ccc(OC)c(NC(=O)Cn2c(CCC(=O)O)ccc2-c2cccs2)c1 | / | -6%
O=C(O)c1ccc(N/N=C/c2cn(-c3ccccc3)nc2-c2cccs2)cc1 | -16% | -3%
COc1ccc(C(=O)NC2CC3CCCC(C2)N3CC(C)C)cc1 (configuration not stated) | -15% | -15%
COc1ccc(-c2nnc(OCc3ccccc3)c3ccccc23)cc1 | -23% | -3%
Cc1cc(C)n2cc(CSc3ncccc3C(=O)O)nc2n1 | i[1.46 µM] | -7%
O=C(CCn1c(=O)c2cccn2c2ccc(F)cc21)NCCc1ccc(Cl)cc1 | -18% | 1%
O=C(N[C@@H]1C/C=C\C[C@@H](CC(=O)N(CCO)Cc2ccccc2)C(=O)NC[C@H](c2ccccc2)OC1=O)OCC1c2ccccc2-c2ccccc21 | ? | ?
O=C(Cc1ccccc1)NNC(=O)Nc1ccccc1 | -12% | -1%
O=C(Cc1c[nH]c2ccccc12)Nc1ccccc1N1CCOCC1 | -13% | -14%
Cc1ccc(CS(=O)(=O)CCC(=O)NCCN2CCCCC2C)cc1 (configuration not stated) | -7%[1.46 µM] | -8%
CCn1c2ccccc2c2cc(CN3CCN(Cc4ccccc4F)CC3)ccc21 | -23% | -10%
CN(CCC#N)C(=O)COC(=O)c1nn(-c2ccccc2)c(=O)c2ccccc12 | i | -7%
CC(=O)N(c1ccc(C(C)C)cc1)C1C=CS(=O)(=O)C1 (configuration not stated) | / | -22%
CCOc1ccccc1NC(=O)Cn1c(=O)n(Cc2ccccc2)c(=O)c2c(C)c(C)sc21 | -15% | -5%
C=CCn1c(-c2cccs2)nc2nc3ccccc3nc21 | / | 6%
Nc1c(-c2ccccc2)cnn1-c1cccc(Cl)c1 | ? | ?
CCOC(=O)C1CCN(C(=O)Nc2ccc3nc(C)c(C)nc3c2)CC1 | / | -25%
CC1=C(C(=O)N(C(C)C)C(C)C)CC(CC(=O)NCCc2ccccn2)C(=O)N1Cc1ccccc1 (configuration not stated) | -3% | -11%
COc1cccc(CNC(=O)Cn2ncc3c(=O)oc4ccccc4c32)c1 | 21%&-15% | -6%&-6%
Cc1ccc(S(=O)(=O)N2CCc3cc(C(=O)N(C)Cc4ccccc4)ccc32)cc1 | -22% | -27%
CCNc1nc(Oc2ccc(OC)cc2)cc(C(F)(F)F)n1 | i | -20%
CCOc1ccc(/C(O)=C2/C(=O)C(=O)N(CCOCCO)C2c2cccnc2)cc1 (configuration not stated) | / | -13%
COc1cccc(NC(=O)CNS(=O)(=O)c2ccc(Cl)cc2)c1 | -11% | -14%
Cc1cc(C)n(-c2nc3ccccc3nc2Nc2ccc(N(C)C)cc2)n1 | -8% | -11%
COc1ccc(-c2c(-c3cc(OC)cc(OC)c3)n(C)c3ccc(-c4ccc(SC)cc4)cc23)cc1 | -1% | -4%
Nc1cc(=O)[nH]c(SCC(=O)Nc2cccc(S(=O)(=O)N3CCCCC3)c2)n1 | i | 3%

Compound profiles, as listed above. Values in the order: Vaccinia mCherry | Vaccinia Venus
Nc1cc(=O)[nH]c(SCC(=O)Nc2cccc(S(=O)(=O)N3CCCCC3)c2)n1 across the screens: i | 3%
CCNc1nc(Oc2ccc(OC)cc2)cc(C(F)(F)F)n1 across the screens: i | -20%

The list continues.
SMILES | Vaccinia mCherry | Vaccinia Venus
CC(C)Cn1c(N)c(C(=O)CSc2nnnn2C)c(=O)n(C)c1=O | / | 18%
COC(=O)c1sccc1NC(=O)Cc1ccc(OC)c(OC)c1 | -15% | -14%
COc1ccc(OC)c2nc3c(cc12)CCC3 | -23% | -24%
CCOc1ccc2nc(Cl)sc2c1 | 4% | 2%
NCCNC[C@@H]1COC2(CCCCCCCCCCC2)O1 | -22% | -20%
Cc1noc(C)c1CSc1nnc(-c2c[nH]c3ccccc23)n1-c1ccc(Cl)cc1 | / | -4%
CCOc1ccc(NC(=O)CCC(=O)NNC(=O)Nc2ccc(Cl)cc2)cc1 | 0% | -10%
COc1cccc(NC(=S)N(CCCN2CCCC2)Cc2ccco2)c1 | -4% | -2%
COc1ccc(-c2noc(-c3ccc(NCc4cccnc4)c([N+](=O)[O-])c3)n2)cc1OC | -14% | -17%
CC(C)CC(=O)Nc1c(C(=O)N2CCN(Cc3ccccc3)CC2)oc2ccccc12 | -22% | -18%
N#Cc1c(N)c(C#N)c(-c2ccc(O)cc2)c2c1CCCC2 | / | -29%
Cc1ccc(NC(=S)NNC(=O)c2cn(C)nc2C)cc1 | -7% | -6%
O=C(CN1CCN(c2ccccc2O)CC1)Nc1ccc(S(=O)(=O)N2CCCCCC2)cc1 | -8% | -26%
O=C(c1cc(-c2cccnc2)nc2ccc(Cl)cc12)N1CCN(S(=O)(=O)c2cccs2)CC1 | -20% | -7%
NS(=O)(=O)c1ccc(NC(=O)COC(=O)C23CC4CC(CC(C4)C2)C3)cc1 | i | -9%
CN(c1ccccc1)S(=O)(=O)c1cccc(NS(=O)(=O)c2cccc(C(=O)O)c2)c1 | -14% | -7%
COc1ccc(NC(=O)CC(C)=O)c(OC)c1 | -2% | -6%
CCOCCSc1c(C)cnc2c1c(=O)n(C)c(=O)n2C | -15%[7.34 µM] | -6%[7.34 µM]
N/C(=N\OC(=O)COc1ccc(Br)cc1Cl)c1ccncc1 | -2% | ?
COc1ccc(NC(=O)C2(C)Cc3c(-c4cccc(C(N)=O)c4)ccnc3O2)cn1 (configuration not stated) | -2% | -28%
N#Cc1ccccc1/C=C/C(=O)N1CCOCC1 | -14% | -10%
COc1ccc(-n2c(Cc3cccn3C)nnc2SCC(=O)Nc2ccc3c(c2)OCO3)cc1 | -8% | -5%
CC(C)=CCc1cc([C@@H]2CC(=O)c3ccc(O)c(CC=C(C)C)c3O2)ccc1O | -22% | -15%
COCCN(CCOC)S(=O)(=O)c1ccc(OC)cc1 | / | -16%
O=C1OC(c2ccccc2)(c2cc(Br)c(O)c(Br)c2)c2ccccc21 (configuration not stated) | i | -9%
O=C(CS(=O)(=O)c1ccc2ccccc2c1)N1CCCCCC1 | i | -8%
CC(=O)c1cccc(NC(=O)C(C)OC(=O)CCC2CCCCC2)c1 (configuration not stated) | -17% | -3%
CC(=O)N1CCc2cc(Br)cc(S(=O)(=O)N3CCC(C)CC3)c21 | -13% | -5%
CC(OC(=O)c1cc(-c2cccnc2)nc2ccccc12)C(=O)Nc1ccc2ccccc2c1 (configuration not stated) | i | -22%
CCOC(=O)c1[nH]c(C)c(C(=O)NCCN2CCOCC2)c1C | -16% | -8%

Six successive records from above:
SMILES | Vaccinia mCherry | Vaccinia Venus
O=C1OC(c2ccccc2)(c2cc(Br)c(O)c(Br)c2)c2ccccc21 (configuration not stated) | i | -9%
O=C(CS(=O)(=O)c1ccc2ccccc2c1)N1CCCCCC1 | i | -8%
CC(=O)c1cccc(NC(=O)C(C)OC(=O)CCC2CCCCC2)c1 (configuration not stated) | -17% | -3%
CC(=O)N1CCc2cc(Br)cc(S(=O)(=O)N3CCC(C)CC3)c21 | -13% | -5%
CC(OC(=O)c1cc(-c2cccnc2)nc2ccccc12)C(=O)Nc1ccc2ccccc2c1 (configuration not stated) | i | -22%
CCOC(=O)c1[nH]c(C)c(C(=O)NCCN2CCOCC2)c1C | -16% | -8%

The listing continues.
SMILES | Vaccinia mCherry | Vaccinia Venus
O=C1CC(c2c(F)cccc2Cl)c2c(ccc3ccccc23)N1 (configuration not stated) | -30% | -29%
O=C(Nc1ccccc1Cl)c1cc(C2CCCCN2C(=O)c2cccs2)on1 (configuration not stated) | -8% | 2%
Nc1nc(-c2ccco2)nn1S(=O)(=O)c1ccc(Cl)cc1 | -12% | -6%
COc1cccc(Cn2nnc(C(=O)Nc3cc(Cl)ccc3OC)c2N)c1 | ? | -27%
Cc1cccnc1NC(=O)Nc1cccc(F)c1 | -9% | -19%
CCC1(CC)NC(=O)N(CC(=O)OCC(=O)Nc2ccccc2[N+](=O)[O-])C1=O | 4% | 7%
COc1ccc(CN2C(=O)CCCc3ccccc32)cc1 | -9% | ?

Screens as filed in PubChem BioAssay.
